Compound activity from PubChem.
PKD1 kinase inh – inhibitors of human PKD1 kinase; Q15139; PKD1 kinase fluorescence polarization assay; inhibition, %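 (about 10 µM by stock and volumes)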; 0.056% of 200,000 active; AID 797;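 active means inhibition of 50% or more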;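 further: controls were vehicle for no effect and a reference inhibitor for full effect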
Target sequence (Q15139 whole entry, looked up): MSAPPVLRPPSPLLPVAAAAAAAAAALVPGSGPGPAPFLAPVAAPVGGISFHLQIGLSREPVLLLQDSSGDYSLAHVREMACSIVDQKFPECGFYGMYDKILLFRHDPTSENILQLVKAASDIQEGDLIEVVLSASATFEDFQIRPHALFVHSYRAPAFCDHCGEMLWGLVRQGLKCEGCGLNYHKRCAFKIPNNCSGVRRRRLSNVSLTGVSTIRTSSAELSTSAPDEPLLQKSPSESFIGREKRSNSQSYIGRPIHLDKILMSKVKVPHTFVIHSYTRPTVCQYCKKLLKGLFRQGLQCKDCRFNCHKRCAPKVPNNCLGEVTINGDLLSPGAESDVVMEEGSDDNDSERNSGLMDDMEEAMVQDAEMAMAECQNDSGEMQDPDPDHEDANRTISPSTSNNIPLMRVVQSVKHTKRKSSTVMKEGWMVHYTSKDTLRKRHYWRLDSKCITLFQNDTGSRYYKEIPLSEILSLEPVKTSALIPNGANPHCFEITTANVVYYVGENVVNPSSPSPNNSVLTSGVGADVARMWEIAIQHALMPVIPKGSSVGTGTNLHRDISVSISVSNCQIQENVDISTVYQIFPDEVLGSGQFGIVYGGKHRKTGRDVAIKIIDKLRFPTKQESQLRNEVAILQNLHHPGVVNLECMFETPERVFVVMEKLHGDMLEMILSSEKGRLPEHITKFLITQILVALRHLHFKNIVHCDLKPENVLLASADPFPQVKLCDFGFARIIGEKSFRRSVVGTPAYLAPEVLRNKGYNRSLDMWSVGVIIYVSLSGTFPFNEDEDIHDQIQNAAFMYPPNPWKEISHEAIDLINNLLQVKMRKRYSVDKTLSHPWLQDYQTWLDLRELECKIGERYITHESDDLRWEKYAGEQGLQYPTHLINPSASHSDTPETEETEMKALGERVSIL
HSV replic up – HSV replication enhancement; AID 1956; HSV replication augmentation in cells, fold increase; maximum fold increase; 0.005% of 220,000 active;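 active means peak rise of 1.5-fold or more in the series; tested in PC3 cells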;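 further: first round at 10 µM; read as green reporter fluorescence; hits show the peak of a series up to 25 µM; 1 = signal of infected wells without compound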
Insulin prom inh – TRM-6 insulin promoter activity inhibition; TRM-6 cells (human fetal islet line), insulin promoter-eGFP reporter, imaging; reporter expression induced with tamoxifen; inhibition, % at 2 µM; 0.9% of 130,000 active; AID 1273;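 active means inhibition above the mean plus 3 SD, with well images judged a real hit on visual review, cut at about 60% in these data, passing the limit was not always enough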
GALR2 agonist – GALR2 (human) receptor agonism; O43603; GALR2-expressing cells, agonist activation read-out; 0.48% of 140,000 active; AID 803; activation, %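 (tested at 5 µM)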;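 active means above mean plus 3 SD of all compounds, about 5% in these data, not always enough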;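 further: 0% = vehicle buffer wells and 100% = reference agonist at full effect; tested in CHO reporter cells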
RGS16-Gao HTS – modulates binding between human RGS16 and Galphao; 0.38% of 220,000 active; AID 1441; bead-based flow cytometry RGS16-Galphao binding, fluorescence; actives lie on both sides; O15492+P09471; binding response (% of control), % at 10 µM;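 active means below 25% or above 175%, edge rows of some plates excepted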;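 further: Galphao activated by GDP with aluminum fluoride before binding; 100% = wells without compound and 0% = beads without RGS; some results beyond the cut were filed as inactive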
Insulin prom inh cell count – second read-out of Insulin prom inh, no call of its own (marks repeat the call); normalized cell count, %; measured here: cell count, toxicity; reference of the scale not given here;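 cells exposed to compound for 48 h; stained nuclei by imaging scaled within each plate; lower means fewer cells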
HSV replic up primary fold – second read-out of HSV replic up, no call of its own (marks repeat the call); fold increase; compound at 10 µM; measured here: primary screen fold increase 10 uM; tested in PC3 cells;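 GFP signal in the first replicate; 1 = infected wells without compound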
Active calls of the source: *; i = inactive; nt = not tested or not shown.

SMILES	PKD1 kinase inh	HSV replic up	HSV replic up primary fold	Insulin prom inh	Insulin prom inh cell count	GALR2 agonist	RGS16-Gao HTS
N#Cc1cc(Oc2ccc3ccccc3c2)c(-n2nnc3ccccc32)cc1C#N	-8	i	0.9	17	122	-0.9	95
O=C(O)c1ncn(Cc2ccccc2)c1C(=O)O	-4	i	1.1	38	204	-1.4	101
NC(=O)c1cc2cc(Cl)ccc2oc1=O	-3	i	0.82	14	66	-0.7	104
CCOC(=O)c1sc(-c2cccs2)nc1C	5	i	1	33	153	nt	106
CCc1ccc(CN2CCN(S(=O)(=O)Cc3ccccc3)CC2)cc1	-7	i	0.98	nt	nt	-0.7	102
Cc1ccc2cccnc2c1N	-11	i	0.78	-20	103	nt	103
COc1cc(NC(=S)NCCc2ccccc2)c(OC)cc1NC(=O)CC(C)C	0	i	1	25	75	nt	101
O=C(c1cc(-c2ccco2)on1)N1CCc2ccccc2C1	4	i	1.1	nt	nt	-3.2	101
Cc1nnc(SCC(=O)N2CCCC2)n(N)c1=O	-3	i	0.81	-44	107	nt	103
CNc1nc(N(C)C)nc(N(C)C)n1	-9	i	0.98	-19	96	-0.5	101
Cc1ccc(NC2=C(NCCO)C(=O)c3ccccc3C2=O)cc1	-5	i	0.72	40	85	-0.3	102
C=CCn1c(SCCOc2ccc(OC)cc2)nnc1C(C)NC(=O)c1ccc(OC)cc1 (stereo unspecified)	3	i	0.97	-10	53	0.0	107
Cc1cccc(NC(=O)C2CC(=O)n3cnnc3S2)c1 (stereo unspecified)	-3	i	0.97	17	138	-1.6	103
O=C(c1cnn(C(=O)c2ccc(O)cc2)c1)c1ccccc1O	-2	i	0.99	nt	nt	nt	99
OCCNCc1ccc(OC2CCCC2)cc1	0	i	0.9	-56	128	0.7	108
Nc1nc(SCC(=O)Nc2ccc([N+](=O)[O-])cc2Br)n[nH]1	5	i	0.93	25	101	-2.1	82
O=C(NC(=S)Nc1ccccc1N1CCN(C(=O)c2ccccc2)CC1)c1cccs1	nt	i	0.83	nt	nt	nt	104
O=C(C1CCCN(S(=O)(=O)c2ccc(F)cc2)C1)N(Cc1cccs1)C1CC1 (stereo unspecified)	-3	i	0.99	-19	78	-1.1	106
COc1ccc(/C=N/NC(=S)Nc2cc(S(=O)(=O)N3CCOCC3)ccc2N2CCOCC2)cc1O	0	nt	nt	-23	86	0.4	105
O=C(O)c1cc(S(=O)(=O)N2CCCCC2)ccc1F	-4	i	0.83	nt	nt	-1.4	102
FC(F)(F)c1nc(SCc2ccc(Cl)cc2Cl)n[nH]1	nt	i	1.1	nt	nt	nt	108
Cn1c(-c2ccc(F)cc2)cnc1SCC(=O)NNC(=O)Cc1ccccc1	-1	i	1.1	-28	78	nt	109
CC(=O)c1cccc(NC(=O)NCc2cccs2)c1	-6	i	0.83	7	73	-2.1	97
O=C(CN1CCOc2ccccc21)NC1CC1	11	i	0.99	nt	nt	-1.3	nt
CC(NC(=O)CSC1=NCCS1)c1ccccc1 (stereo unspecified)	-1	i	0.91	nt	nt	0.1	105
Cc1ccc(S(=O)(=O)c2nc(NCCN(C)C)sc2Cl)cc1	1	i	0.95	-31	124	-1.3	102
CCCCn1c(SCC(=O)N2CCN(c3ccccc3)CC2)nc2ccsc2c1=O	3	i	0.91	nt	nt	-2.8	104
CCOC(=O)C1=C(CC)Nc2ccccc2N=C1NC(=O)c1cccc(S(=O)(=O)N2CCCC2)c1	-2	i	0.83	6	84	-3.3	103
CCCc1nc(SCC(=O)Nc2ccc(S(=O)(=O)N(C)C)cc2)c2ccccc2n1	-12	i	0.85	4	99	0.5	89
Cc1ccc(C)c(CSC2=NCCN2C(=O)Cc2ccc([N+](=O)[O-])cc2)c1	5	i	0.96	nt	nt	-1.1	101

Shown with two lines to a compound: part of the list above
Values run as follows: PKD1 kinase inh, HSV replic up, HSV replic up primary fold, Insulin prom inh, Insulin prom inh cell count, GALR2 agonist, RGS16-Gao HTS
N#Cc1cc(Oc2ccc3ccccc3c2)c(-n2nnc3ccccc32)cc1C#N
 : -8, i, 0.9, 17, 122, -0.9, 95
O=C(O)c1ncn(Cc2ccccc2)c1C(=O)O
 : -4, i, 1.1, 38, 204, -1.4, 101
NC(=O)c1cc2cc(Cl)ccc2oc1=O
 : -3, i, 0.82, 14, 66, -0.7, 104
CCOC(=O)c1sc(-c2cccs2)nc1C
 : 5, i, 1, 33, 153, nt, 106
CCc1ccc(CN2CCN(S(=O)(=O)Cc3ccccc3)CC2)cc1
 : -7, i, 0.98, nt, nt, -0.7, 102
Cc1ccc2cccnc2c1N
 : -11, i, 0.78, -20, 103, nt, 103
COc1cc(NC(=S)NCCc2ccccc2)c(OC)cc1NC(=O)CC(C)C
 : 0, i, 1, 25, 75, nt, 101
O=C(c1cc(-c2ccco2)on1)N1CCc2ccccc2C1
 : 4, i, 1.1, nt, nt, -3.2, 101
Cc1nnc(SCC(=O)N2CCCC2)n(N)c1=O
 : -3, i, 0.81, -44, 107, nt, 103
CNc1nc(N(C)C)nc(N(C)C)n1
 : -9, i, 0.98, -19, 96, -0.5, 101
Cc1ccc(NC2=C(NCCO)C(=O)c3ccccc3C2=O)cc1
 : -5, i, 0.72, 40, 85, -0.3, 102
C=CCn1c(SCCOc2ccc(OC)cc2)nnc1C(C)NC(=O)c1ccc(OC)cc1 (stereo unspecified)
 : 3, i, 0.97, -10, 53, 0.0, 107
Cc1cccc(NC(=O)C2CC(=O)n3cnnc3S2)c1 (stereo unspecified)
 : -3, i, 0.97, 17, 138, -1.6, 103
O=C(c1cnn(C(=O)c2ccc(O)cc2)c1)c1ccccc1O
 : -2, i, 0.99, nt, nt, nt, 99
OCCNCc1ccc(OC2CCCC2)cc1
 : 0, i, 0.9, -56, 128, 0.7, 108
Nc1nc(SCC(=O)Nc2ccc([N+](=O)[O-])cc2Br)n[nH]1
 : 5, i, 0.93, 25, 101, -2.1, 82
O=C(NC(=S)Nc1ccccc1N1CCN(C(=O)c2ccccc2)CC1)c1cccs1
 : nt, i, 0.83, nt, nt, nt, 104
O=C(C1CCCN(S(=O)(=O)c2ccc(F)cc2)C1)N(Cc1cccs1)C1CC1 (stereo unspecified)
 : -3, i, 0.99, -19, 78, -1.1, 106
COc1ccc(/C=N/NC(=S)Nc2cc(S(=O)(=O)N3CCOCC3)ccc2N2CCOCC2)cc1O
 : 0, nt, nt, -23, 86, 0.4, 105
O=C(O)c1cc(S(=O)(=O)N2CCCCC2)ccc1F
 : -4, i, 0.83, nt, nt, -1.4, 102
FC(F)(F)c1nc(SCc2ccc(Cl)cc2Cl)n[nH]1
 : nt, i, 1.1, nt, nt, nt, 108
Cn1c(-c2ccc(F)cc2)cnc1SCC(=O)NNC(=O)Cc1ccccc1
 : -1, i, 1.1, -28, 78, nt, 109
CC(=O)c1cccc(NC(=O)NCc2cccs2)c1
 : -6, i, 0.83, 7, 73, -2.1, 97
O=C(CN1CCOc2ccccc21)NC1CC1
 : 11, i, 0.99, nt, nt, -1.3, nt

(more compounds)
SMILES	PKD1 kinase inh	HSV replic up	HSV replic up primary fold	Insulin prom inh	Insulin prom inh cell count	GALR2 agonist	RGS16-Gao HTS
COc1ccc(CCNC(=O)N2CCOCC2)cc1	-12	i	1	-75	134	-1.4	99
N#Cc1nc(-c2cccs2)oc1N1CCOCC1	-9	i	0.84	-13	130	-2.2	101
COC(=O)C1C(=O)NCC1c1ccc(OC)cc1 (stereo unspecified)	-2	i	0.88	-4	119	-0.3	99
CCOc1ccc(-n2c(SCc3cc(=O)oc4cc(C)c(C(C)C)cc34)nnc2-c2cccnc2)cc1	5	i	0.89	-32	100	1.6	108
CCOCc1nnc(NC(=O)c2cc(Cl)ccc2OC)s1	-10	i	1	-27	47	-0.6	98
COc1ccc(Cl)cc1-c1nc(SCC(=O)NC(C)C)n[nH]1	-4	nt	nt	0	171	nt	110
C[C@@H]1C(=O)O[C@H]2[C@H]1CC[C@@]1(C)C(=O)C=C[C@@](C)(O)[C@H]21	nt	i	0.94	nt	nt	nt	99
CCc1ccc(OC)c(-c2csc(N)n2)c1	-1	i	0.97	45	73	nt	104
Cc1ccc(-c2[nH]ncc2/C=N/n2c(COc3ccccc3)nc3ccccc3c2=O)cc1	-13	i	0.67	nt	nt	1.0	107
CCCCN(CC)C(=O)Cc1ccccc1OC	-9	i	1.1	-17	128	-1.6	100
COc1ccccc1N1C(=O)c2cccc3c(C(=O)O)ccc(c23)C1=O	0	i	1.1	-13	102	-1.2	105
CCOc1cc(C(=O)Nc2cc(C)ccc2OC)ccc1OCC(=O)N1CCCCC1	-4	i	1.1	3	83	0.2	93
COc1ccc2c(c1)CCc1cn3ncc(C#N)c3nc1-2	-12	i	1.1	nt	nt	nt	94
Cn1c(=O)c2c(nc(NC3CCCCC3)n2CC(O)COc2ccccc2)n(C)c1=O (stereo unspecified)	3	i	0.76	7	58	-0.7	105
S=C(NCCCN1CCOCC1)N1CCN(c2nc(-c3ccccc3)cs2)CC1	2	i	0.87	nt	nt	nt	134
CCC(=O)Nc1nonc1-c1nc2ccccc2n1Cc1cccc2ccccc12	0	i	0.44	-92	27	-0.4	94
CC(C)OC(=O)CSc1nnnn1-c1ccc2c(c1)OCCO2	-7	i	0.89	-8	177	0.0	79
CN1CCN(c2ccc(CNC(=O)c3cc4ccccc4o3)cc2)CC1	nt	i	0.87	nt	nt	nt	102
Cc1cc(C)n(-c2nc3ccccc3nc2Nc2ccc3c(c2)OCO3)n1	0	i	0.91	nt	nt	0.0	92
C=CCn1c(=S)sc2c(=O)[nH]c(C)nc21	nt	i	1.1	nt	nt	nt	102
CC(C)(C)NC(=O)Cn1c(=O)n(CC(=O)NC(C)(C)C)c2ccccc21	-2	i	1	-13	94	nt	102
O=C(CCNS(=O)(=O)c1cccs1)N1CCCCCC1	4	i	0.88	27	103	0.8	108
O=C(O)CNCC1COc2ccccc2O1 (stereo unspecified)	9	i	1.1	-45	98	-1.9	102
COc1ccc(NC(=O)COc2ccc(C)cc2)c([N+](=O)[O-])c1	3	i	1	-14	129	nt	104
CC(c1ccccc1)C(Cc1nc2ccccc2[nH]1)c1nc2ccccc2[nH]1 (stereo unspecified)	2	i	0.86	nt	nt	nt	101
CC(C)Nc1c([N+](=O)[O-])c(=O)oc2ccccc12	-5	i	0.88	-6	123	nt	91
C/C(=N\NC(=O)C1CC1c1ccccc1)c1cccc([N+](=O)[O-])c1 (stereo unspecified)	3	i	0.8	-4	130	-0.6	112
O=C1OC(c2ccccc2)=C/C1=C/N1CCOCC1	2	i	0.95	0	130	-1.0	105
COc1ccc(N2CCN(C(=O)CN=C3NS(=O)(=O)C(c4ccc(C)cc4)=C3C)CC2)cc1	1	i	0.88	nt	nt	-1.8	107
NC(=O)C1CCN(C(=O)CSc2ccsc2[N+](=O)[O-])CC1	16	i	0.92	nt	nt	nt	98

Random excerpt: two records from the list
SMILES	PKD1 kinase inh	HSV replic up	HSV replic up primary fold	Insulin prom inh	Insulin prom inh cell count	GALR2 agonist	RGS16-Gao HTS
C/C(=N\NC(=O)C1CC1c1ccccc1)c1cccc([N+](=O)[O-])c1 (stereo unspecified)	3	i	0.8	-4	130	-0.6	112
CC(C)Nc1c([N+](=O)[O-])c(=O)oc2ccccc12	-5	i	0.88	-6	123	nt	91

Other entries.
SMILES	PKD1 kinase inh	HSV replic up	HSV replic up primary fold	Insulin prom inh	Insulin prom inh cell count	GALR2 agonist	RGS16-Gao HTS
CC(C(=O)N1c2ccc(F)cc2CCC1C)N1C(=O)c2ccccc2C1=O (stereo unspecified)	-13	i	1	-8	89	-1.4	97
O=C(CN1C(=O)c2ccccc2C1=O)Nc1nccs1	nt	i	0.95	nt	nt	nt	97
CCOC(=O)c1ccc(NC(=S)N2CCCC2)cc1	1	i	0.85	nt	nt	nt	94
Cc1ccc(CCN2CC(C(=O)NCc3cccnc3)CC2=O)cc1 (stereo unspecified)	8	i	0.85	nt	nt	-1.7	nt
COc1ccc(C(=O)Nc2ccc(S(=O)(=O)Nc3onc(C)c3C)cc2)cc1	-5	i	1	39	75	1.0	97
COc1ccc(NC(=O)Cc2c(Cl)cccc2Cl)cn1	-2	i	0.92	-93	72	nt	100
Cc1ccc(C)n1Cc1ccccc1Cl	-4	i	1.1	nt	nt	nt	101
COc1ccc(-c2nn(C)c(=O)c3ccccc23)cc1NC(=O)COc1ccc(C)cc1	5	i	0.77	11	130	-0.6	100
Cc1nc([N+](=O)[O-])nn1C12CC3CC(CC(Br)(C3)C1)C2	-1	i	0.97	nt	nt	-2.9	63
CCOC(=O)Cn1c(=O)oc2cc(S(=O)(=O)NCCc3ccc(OCC)c(OCC)c3)ccc21	-2	i	1.1	nt	nt	0.0	97
CC(=O)Nc1ccccc1C(=O)N1CC2(C)CC1CC(C)(C)C2 (stereo unspecified)	3	i	0.86	-19	54	-1.4	103
Cc1cc(C)c(S(=O)(=O)c2ccccc2)c(OC(=O)c2c(Cl)cccc2Cl)n1	2	nt	nt	9	180	-3.2	97
C/C(N)=C(/C#N)C(=O)CSc1nnc(COc2cc(C)ccc2C)o1	0	i	0.77	-3	110	-0.5	96
